Screening results (PubChem BioAssay)
TAR Tat displ = TAR RNA-Tat peptide displacers, HIV-1, primary screen, biochemical, FRET, FAM/TAMRA-labeled Tat. HIV-1 TAR RNA, Tat peptide displacement FRET; active compounds read high. z-score (no concentration beside the values). 100,000 compounds, 0.6% hits. AID 1259389, 2018;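 further: score is relative to mean and SD of negative controls; some compounds called inactive have numbers as strong as hits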
CDC25B-CDK2 inh = primary biochemical HTRF screen for blockers of M-phase inducer phosphatase 2 binding to CDK2/cyclin A; 94,000 compounds, 0.72% hits; HTRF CDC25B-CDK2/CyclinA binding, anti-His/anti-Flag; active compounds read high; z-score (concentration not given with the values); AID 1259370, 2018; P30305+P24941;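 further: score is relative to mean and SD of negative controls; strong numbers were not always called active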
Active calls of the source: *; / = no result given; & = joins results of further samples.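 How the source made its calls: active means z-score from 3 up in half or more of its runs; inactive means the rest.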

Preview, 2 compounds:
SMILES | TAR Tat displ | CDC25B-CDK2 inh
N#Cc1cc2c(=O)n3ccccc3nc2n(-c2nnc(SCc3ccccc3Cl)s2)c1=O | -1.94 | -23.1
C=CCSc1nnc2c(n1)OC1(Nc3ccccc3-2)C(=O)Nc2ccc(Br)cc21 (stereo not drawn) | / | 0.18

Results, previewed entries included:
SMILES | TAR Tat displ | CDC25B-CDK2 inh
N#Cc1cc2c(=O)n3ccccc3nc2n(-c2nnc(SCc3ccccc3Cl)s2)c1=O | -1.94 | -23.1
C=CCSc1nnc2c(n1)OC1(Nc3ccccc3-2)C(=O)Nc2ccc(Br)cc21 (stereo not drawn) | / | 0.18
O=C1NC(c2cccc(O)c2)C(C(=O)c2cccnc2)C(O)(C(F)(F)F)N1 (stereo not drawn) | / | 0.68
CCNC(=O)C1=Cc2cc(Br)ccc2OC1 | 0.28 | /
O=c1cc(CSCc2ccc(Cl)cc2)nc2scc(-c3ccccc3)n12 | -1.58 | -1.31
CCc1nnc(NC(=O)c2cc(=O)c3ccccc3o2)s1 | 1.63 | 1.13
CC1(C)CCc2cc(/C=N/O)ccc2O1 | / | -1.07
O=C1CC(c2ccc(C(F)(F)F)cc2)C2=C(CC(c3cccs3)CC2=O)N1 (stereo not drawn) | / | 0.14
Cc1ccc(NC(=O)CC(CC(=O)O)c2ccccc2)cc1Cl (stereo not drawn) | / | 0.17
O=S(=O)(c1ccc(Br)cc1)N1CCc2[nH]ncc2C1 | -0.15 | -0.99
O=C1c2ccccc2C(Nc2ccccc2)N1c1ccccn1 (stereo not drawn) | -0.74 | -1.4
COc1ccc(Br)cc1C1CC(=O)Nc2nc(SCc3ccccc3F)[nH]c(=O)c21 (stereo not drawn) | 2.42 | -2.18
O=C1NC2NC(=O)N(c3ccccc3)C2N1 (stereo not drawn) | -0.38 | -2.96
C=C1CCC2[C@](C)(CO)[C@H](O)CC[C@@]2(C)[C@@H]1C/C=C1/C(=O)OC[C@H]1O (stereo partly drawn) | 2.41 | /
O=C(CC(=O)N1CCCc2ccccc21)Nc1ccc2nc3n(c(=O)c2c1)CCCCC3 | 0.05 | -0.58
Cn1c(=O)oc2cc(S(=O)(=O)N3CCN(c4ccccn4)CC3)ccc21 | / | -0.74
CN1C(C(=O)NCCN2CCOCC2)=CC(c2cccs2)=NS1(=O)=O | 1.73 | -0.51
CN(C)C(=O)c1ccc(S(=O)(=O)N2CCN(c3ccc(Cl)cc3)CC2)s1 | 1.04 | /
COc1ccc(OC)c(NC(=O)C2COc3ccccc3O2)c1 (stereo not drawn) | -0.29 | 0.32
CC1CCCCN1c1c(O)c(=O)c1=O (stereo not drawn) | -3.13 | /
Cc1nc2ccc(C(=O)OCC(=O)c3ccc(Cl)cc3)cc2nc1C | 3.03 | -0.39
COc1ccc(S(=O)(=O)NCc2cn3ccsc3n2)cc1OC | / | -5.94
COCCOc1ccc([N+](=O)[O-])cc1C(=O)O | / | -2.07
CCCn1c2ccccc2c2cnn(CC(=O)N(CCN(C)C)Cc3ccco3)c(=O)c21 | -0.25 | /
COc1cc(NS(=O)(=O)c2csc(C(N)=O)c2)cc(OC)c1 | 1.84 | /

(further entries)
SMILES | TAR Tat displ | CDC25B-CDK2 inh
Cc1cc(O)c(C(=O)c2cnc3cc(-c4ccccc4)nn3c2)cc1Cl | 0.16 | -3.03
Cc1ccc(-c2nc3ccccc3o2)cc1N=Cc1cc(Cc2ccccc2)cc(Br)c1O | / | -4.37
CCCCN(CC)C(=O)CCC1=NS(=O)(=O)c2ccccc2N1 | -0.05 | /
Cn1cc(NC(=O)N2CCC(Cc3ccccc3)CC2)c2ccccc2c1=O | 0.14 | /
Cc1[nH]c2ccc(-c3nnc(SCC(N)=O)o3)cc2c1C | / | -1.58
COc1cc(OC)c(NC(=O)N2CC=C(c3c[nH]c4ccccc34)CC2)cc1Cl | -5.06 | /
O=C(Nc1cc(Br)ccc1O)C1CC(c2ccccc2F)=NO1 (stereo not drawn) | 1.25 | 1.24
CCN(CC)CCCNC(=O)CCc1c(C)nn2cnnc2c1C | 0.26 | /
CCN(CC)C(=O)Cn1cc(SCC(=O)N2CCc3ccccc32)c2ccccc21 | -0.11 | /
COc1ccc(-c2noc(CSc3nc4ccc(C)cc4[nH]3)n2)cc1OC | 0.04 | 0.44
Cc1ccccc1NC(c1ccc(F)cc1)c1nnc(-c2ccccc2)o1 (stereo not drawn) | 0.99 | /
Cc1ccc(-n2cnc3ncnc(-c4ccccc4)c32)cc1 | 3.01 | -2.27
Cc1ccc(C2=NS(=O)(=O)N(C)C(C(=O)Nc3cnn(C(C)C)c3)=C2)cc1 | 0.89 | -0.91
COC(=O)c1ccc(S(=O)(=O)NN2CCOCC2)n1C | / | -0.76
O=C(CSc1ccc2nnc(-c3cccc(F)c3)n2n1)Nc1ccc(F)cc1F | / | -1.65
Clc1ccc(Cc2nc(-c3ccc(-n4cccc4)cc3)no2)cc1 | -0.79 | -1.62
CNC(=O)c1c(NC(=O)Cc2ccccc2)sc2c1CCC2 | 0.53 | /
CC1CCCC(Nc2c(-c3cccs3)nc3c(C#N)c[nH]n23)C1C (stereo not drawn) | -0.06 | -1.4
O=C(C1CCN(S(=O)(=O)c2ccc3[nH]c(=O)oc3c2)CC1)N1CC=C(c2ccccc2)CC1 | 0.12 | /
O=C(CN1N=NC2C(=O)N(c3ccc(Cl)cc3)C(=O)C21)Nc1ccc(F)c(Cl)c1 (stereo not drawn) | 0.63 | /
CCCCN(C)Cc1c(C)[nH]c2ccc(CC)cc2c1=O | / | 0.22
Cc1nn(CCCC(=O)N2CCc3ccccc3C2)c(=O)c2c1sc1ccccc12 | 3.81 | -1.8
COCCCNC(=O)Nc1ccc2nc3n(c(=O)c2c1)CCCC3 | 1.37 | /
COc1ccccc1/C=C/c1nn2cnnc2s1 | 0.88 | -0.85
O=C(NCCc1cccs1)c1cc(-c2ccccn2)nc2ccccc12 | -2.42 | /

Sorted by count of non-hydrogen atoms (highest first): 12 of the compounds above.
SMILES | TAR Tat displ | CDC25B-CDK2 inh
O=C(C1CCN(S(=O)(=O)c2ccc3[nH]c(=O)oc3c2)CC1)N1CC=C(c2ccccc2)CC1 | 0.12 | /
Cc1nn(CCCC(=O)N2CCc3ccccc3C2)c(=O)c2c1sc1ccccc12 | 3.81 | -1.8
COc1cc(OC)c(NC(=O)N2CC=C(c3c[nH]c4ccccc34)CC2)cc1Cl | -5.06 | /
Cn1cc(NC(=O)N2CCC(Cc3ccccc3)CC2)c2ccccc2c1=O | 0.14 | /
Cc1ccc(C2=NS(=O)(=O)N(C)C(C(=O)Nc3cnn(C(C)C)c3)=C2)cc1 | 0.89 | -0.91
O=C(NCCc1cccs1)c1cc(-c2ccccn2)nc2ccccc12 | -2.42 | /
COCCCNC(=O)Nc1ccc2nc3n(c(=O)c2c1)CCCC3 | 1.37 | /
O=C(Nc1cc(Br)ccc1O)C1CC(c2ccccc2F)=NO1 (stereo not drawn) | 1.25 | 1.24
Cc1ccc(-n2cnc3ncnc(-c4ccccc4)c32)cc1 | 3.01 | -2.27
CCCCN(C)Cc1c(C)[nH]c2ccc(CC)cc2c1=O | / | 0.22
COC(=O)c1ccc(S(=O)(=O)NN2CCOCC2)n1C | / | -0.76
COc1ccccc1/C=C/c1nn2cnnc2s1 | 0.88 | -0.85

(continued)
SMILES | TAR Tat displ | CDC25B-CDK2 inh
CC(C)N1C=C(OC(=O)c2ccc(Br)cc2)c2ccccc2S1(=O)=O | -1.35 | -1.58
CC(=O)N1c2ccc(S(=O)(=O)N3CCC(C(=O)NCc4cccs4)CC3)cc2CC1C (stereo not drawn) | 1.4 | /
CN(Cc1ccccc1)C(=O)Cn1cnc(S(=O)(=O)N2CCc3ccccc32)c1 | -0.1 | /
CCc1nnc(NC(=O)c2nc(S(=O)(=O)CC)ncc2Cl)s1 | 2.81 | 0.41
COc1ccc(-c2csc3nc(-c4ccccc4F)oc(=O)c23)cc1OC | 0.76 | 0.16
c1ccc(-c2noc(-c3cccnc3N3CCOCC3)n2)cc1 | 1.44 | -0.95
CCOC(=O)/C(=N/O)C1=CSC2=NNC(c3ccc(Cl)cc3)N12 (stereo not drawn) | / | -0.56
CCc1nn(CC(=O)N2CCCCCC2)c(=O)c2cc3sccc3n12 | / | -1.47
O=C(COC(=O)CN1C(=O)C(=O)c2ccccc21)OCN1C(=O)c2ccccc2C1=O | / | 0.14
COc1ccccc1C1C(C#N)=C2N=C(N)c3ccccc3N2C2=C1C(=O)CC(C)(C)C2 (stereo not drawn) | -3.45 | -1.04
CC(=O)Nc1nnc(SCc2cc(=O)n3nc(C(C)C)sc3n2)s1 | 0.71 | /
O=C(NCCN1CCOCC1)C(=O)NCC(c1ccc2c(c1)OCO2)N1CCOCC1 (stereo not drawn) | 1.82 | /
Cc1c2n(c3ccccc13)C/C(=C\c1ccccc1)C2=O | / | -0.79
CC(NS(=O)(=O)c1ccc2c(c1)CC(C)N2C(=O)C1CC1)c1ccccc1 (stereo not drawn) | 0.98 | /
CCN(CC)C(=O)CCCn1nc(C)n2c(cc3sccc32)c1=O | 0 | 0.82
O=C(C1CCCN(S(=O)(=O)N2CCOCC2)C1)N1CCN(C2CCCCC2)CC1 (stereo not drawn) | 0.74 | /
Cc1noc(/C=C/N(C)C)c1S(=O)(=O)N1CCCC(C(=O)Nc2ccccc2Cl)C1 (stereo not drawn) | / | 0.62
COc1ccc(Cl)cc1N1C(=O)C=C(c2ccccc2)C1=O | / | -2.2
C[N+](C)(C)c1ccc(N)cc1 | / | -1.43
COc1ccc(Nc2nc(NCCC(C)C)nc3c2cnn3C)cc1 | 0.6 | /
O=C1CCSc2ccc(S(=O)(=O)NCC3CCN(Cc4ccc(F)cc4)CC3)cc2N1 | -0.19 | /
O=C(Nc1ccc(Cl)cc1)N1CCN(Cc2ccc3c(c2)OCO3)CC1 | / | 1.53
O=C(O)c1c2c(nc3ccccc13)CCCC2 | / | -1.07&-0.03
CCN1C(C(=O)OC)=C(OC(=O)c2ccccc2Br)c2ccccc2S1(=O)=O | 2.09 | 0.06
CCN1CCN(c2c(S(=O)(=O)c3ccc(C)c(C)c3)cnc3cc(OC)c(OC)cc23)CC1 | -1.54 | -1.4

Following part:
SMILES | TAR Tat displ | CDC25B-CDK2 inh
Cn1c2c(c(=O)[nH]c1=O)C(c1ccc(C(C)(C)C)cc1)C1=C(N2)c2ccccc2C1=O (stereo not drawn) | -6.87 | -1.14
O=C(CSc1nc2ccccc2nc1N1CCOCC1)N1CCN(c2cccc(Cl)c2)CC1 | -1.36 | -0.16
CN(C)CCCN1C(=O)C(=O)/C(=C(/O)c2ccccc2)C1c1ccccc1 (stereo not drawn) | / | -0.38
COc1ccc(CN2CCN(Cc3ccc(SC)cc3)CC2)cc1OC | 0.26 | -0.71
CC(Oc1ccc(Cl)cc1Cl)C(=O)NN (stereo not drawn) | / | -1.51
COC(=O)c1ccc(C2/C(=C(/O)c3ccc(C)cc3)C(=O)C(=O)N2c2cccnc2)cc1 (stereo not drawn) | 0.97 | 12.2*
Brc1ccc(SCCc2ccncc2)cc1 | 0.52 | 2.41
COc1ccc(OCC(=O)Nc2nc3cc(Cl)ccc3o2)cc1 | 0.93 | /
O=C1NC(c2ccccc2)C(C(=O)c2ccc(Cl)cc2)C(O)(C(F)(F)F)N1 (stereo not drawn) | / | -2.65
Cc1nc(CN2C(=O)COc3cc(S(=O)(=O)N4CCc5ccccc5C4)c(Cl)cc32)no1 | 0.63 | /
C=CCN(C(=O)Cc1noc2ccccc12)c1ccccc1 | -0.12 | 0.5
O=S(=O)(Nc1cccc(F)c1)c1ccc(-n2cccn2)cc1 | 1.04 | /
Cc1cc(-c2ccc(=O)[nH]n2)cc(S(=O)(=O)N2CCc3ccccc32)c1C | 1.01 | /
O=C(O)Cn1c(-c2cccs2)cc2cc(Cl)ccc21 | 0.21 | -0.27
Cc1sc2ncn(CC(=O)N3CCCC3)c(=O)c2c1S(=O)(=O)N1CCCCC1 | / | 0.27
Cc1ccc2c(C)nc(Nc3nc(C)cc(C)n3)nc2c1 | -1.15 | 1.78
CCOc1cc(C2C(C#N)=C(N)OC3=C2C(=O)CC(C)(C)C3)ccc1O (stereo not drawn) | / | 0.07
CCOC(=O)c1cc(-c2ccc(S(=O)(=O)N3CCc4ccccc43)s2)on1 | -3.07 | /
Cc1c(C(=O)N2CCCC(C)C2)sc2nc3n(c(=O)c12)CCCC3 (stereo not drawn) | 0.98 | /
CCN(CC)C(=O)c1sc(NC(=O)c2ccc3c(c2)OCO3)c(C(=O)OC(C)C)c1C | / | -1.49
Cc1nn(-c2cccc(F)c2)c2[nH]c(=O)c(CCC(=O)O)c(C)c12 | 0.88 | -1.26
CC1Cc2cc(S(=O)(=O)N3CCCC(C(=O)Nc4ccc(F)cc4)C3)ccc2N1C(=O)C1CC1 (stereo not drawn) | 2.89 | /
CCn1ncc(C2=NOC(C(=O)NCCN3CCOCC3)C2)c1C (stereo not drawn) | 0.87 | 0.93
Cc1c(Cc2ccccc2)c(-n2ccnc2)n2c(nc3ccccc32)c1C#N | 0.65 | -3.38
COc1cccc(-c2nc3c(C#N)c[nH]n3c2NC2CCC(C)CC2)c1 (stereo not drawn) | -4.53 | -0.92

The list continues:
SMILES | TAR Tat displ | CDC25B-CDK2 inh
COC(=O)c1sc(N2C(=O)C(=O)/C(=C(/O)c3ccccc3)C2c2ccc(C)cc2)nc1C (stereo not drawn) | 2.85 | -2.99
CCN(CC)CCC#CC(OC)(c1ccccc1)c1ccccc1 | 0.01 | -2.77
COC(=O)C1=C(C)NC2=C(C(=O)CC(c3ccccc3OC)C2)C1c1cccc(OC)c1OC (stereo not drawn) | 0.53 | -0.63
O=C(Nc1onc2c1CCCC2)c1ccccc1 | 0.9 | -1.41
CC(=O)N1CCc2cc(S(=O)(=O)C(C)CC(=O)Nc3ccc(Br)cc3F)ccc21 (stereo not drawn) | 1.03 | /
CC(C)(C)NC(=O)CSc1nc(-c2cccc(Cl)c2)nc2cc(=O)[nH]n12 | -1.33 | /
CCn1c(C(=O)N2CCC(C(=O)N3CCOCC3)CC2)cc2sccc21 | / | -3.55
CSC(=NC1CCCCNC1=O)NC#N (stereo not drawn) | / | -0.78
Cc1cc(-c2ccc(C)c(S(=O)(=O)N(C)Cc3ccccc3)c2)on1 | -0.29 | /
